Screens deposited in PubChem by several laboratories.
PABP polyA inh: blocks human PABP binding to poly(A) RNA; hit rate 1% among 290,000; fluorescence polarization; inhibition, % at 35 µM; P11940;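 active = 50% or more with normal probe brightness, or confirmed in later tests; about a fifth of its hits are not listed in these tables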;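 note: calls also rest on retests at 20 µM and on dose response follow-up; controls were probe without protein and protein plus probe with vehicle; some compounds called inactive have numbers as strong as hits; many hits fall short of the cut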
Target sequence (P11940 whole entry, looked up): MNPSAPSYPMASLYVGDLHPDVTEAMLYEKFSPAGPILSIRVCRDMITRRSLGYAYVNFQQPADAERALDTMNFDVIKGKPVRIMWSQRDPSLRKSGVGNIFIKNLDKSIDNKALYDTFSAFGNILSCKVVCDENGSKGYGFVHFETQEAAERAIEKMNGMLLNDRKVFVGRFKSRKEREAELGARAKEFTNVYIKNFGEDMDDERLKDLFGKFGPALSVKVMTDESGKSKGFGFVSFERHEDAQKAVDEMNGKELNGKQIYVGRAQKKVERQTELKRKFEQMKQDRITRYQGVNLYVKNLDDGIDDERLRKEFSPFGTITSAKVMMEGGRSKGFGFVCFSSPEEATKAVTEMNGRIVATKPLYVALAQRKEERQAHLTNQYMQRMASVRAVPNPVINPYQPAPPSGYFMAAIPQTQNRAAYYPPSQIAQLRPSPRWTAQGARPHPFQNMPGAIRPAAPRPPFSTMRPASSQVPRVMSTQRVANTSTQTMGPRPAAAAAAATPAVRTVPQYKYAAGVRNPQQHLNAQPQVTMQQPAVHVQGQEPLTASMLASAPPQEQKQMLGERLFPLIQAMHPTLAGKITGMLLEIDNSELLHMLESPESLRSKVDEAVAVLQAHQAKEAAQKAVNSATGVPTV
Env fusion inh: inhibitors of HIV Env-mediated cell fusion; HeLa-JRFL Env/CEM21 cell fusion, luciferase; inhibition, % at 12.3 µM; hit rate 1.1% among 360,000;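 active = mean replicate inhibition score of at least 50 and every replicate individually at or above 50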;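 note: 0% = plate neutral controls and 100% = maraviroc near 300 nM; one replicate is shown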
CSC inhib: cancer stem cell inhibition. hit rate 1.1% among 300,000. inhibition, % at 7.5 µM. cancer stem cell-like cells viability, luminescence;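 active = mean at 75% or more and at least half the replicates too; tested in HMLE shEcad cells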;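 note: 0% = median of negative and 100% = median of positive control wells; the first replicate is given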
MT1-MMP act inh: MT1-MMP (human) activation inhibition; GFP/RFP ratio change, % at 20 µM; hit rate 0.061% among 360,000; P50281; HT1080 RFP-PRO-GFP cells, GFP/RFP ratio fluorescence, overnight; percent of plate control window, DMSO zero;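 active = GFP/RFP ratio change of at least 30% with cell ATP level not reduced by more than half and red fluorescence within 50% of control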; note: strong numbers were not always called active
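Assay system: HT1080 RFP-PRO-GFP cells | Dosing: 20 µM single dose, 1% DMSO | Incubation: Cells overnight before dosing, compound overnight, 37 °C, 5% CO2 | Evaluation: GFP/RFP fluorescence ratio | Control set: DMSO-only wells and HT1080 RFP-L50D-GFP cell wells as references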
eIF4H FP inh: inhibitors of RNA binding by human eIF4H | AID 2012 | Q15056 | inhibition, % at 35 µM | hit rate 0.94% among 290,000 | eIF4H fluorescence polarization binding assay;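 active = 50% or more with normal probe brightness, or confirmed in later tests; about a fifth of its hits are not listed in these tables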;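 note: calls also rest on retests at 20 µM and on dose response follow-up; 0% = protein and probe with vehicle and 100% = probe without protein; strong numbers were not always called active; many hits fall short of the cut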
Rce1 inhib: yeast Ras-converting enzyme inhibition; Q03530; yeast membranes, quenched prenylated peptide cleavage fluorescence; calls only; hit rate 0.27% among 290,000; AID 2563;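 active = fall in fluorescence gain of 50% or more versus controls, with final raw signal at or below 3038400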;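 note: plate controls were neutral control wells for no effect and wells lacking membranes for full effect; tested at 10 µM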
Target sequence (Q03530 whole entry, looked up): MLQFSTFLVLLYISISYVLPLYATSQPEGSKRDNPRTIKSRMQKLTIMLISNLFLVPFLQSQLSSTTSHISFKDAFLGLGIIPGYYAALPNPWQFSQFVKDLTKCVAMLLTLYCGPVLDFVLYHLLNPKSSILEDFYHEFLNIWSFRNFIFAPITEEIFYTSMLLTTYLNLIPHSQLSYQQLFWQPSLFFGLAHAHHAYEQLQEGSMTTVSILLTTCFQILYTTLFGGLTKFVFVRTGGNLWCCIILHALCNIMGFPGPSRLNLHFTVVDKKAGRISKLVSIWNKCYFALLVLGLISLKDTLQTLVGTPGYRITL
UUG fidelity: modulators of start codon recognition fidelity in yeast; S. cerevisiae UUG-firefly luciferase reporter, luminescence/redox ratio; activity score, % at 18.7 µM; hit rate 0.13% among 350,000; AID 602363;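 active = replicate mean at a twofold rise or more, about +100% in these data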;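 note: firefly luciferase made from a UUG start codon reports start codon fidelity; reporter light over untreated wells divided by growth signal over untreated wells; some hits fall short of that in this replicate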
MT1-MMP act inh RFP: recorded beside MT1-MMP act inh, whose call it bears; RFP signal change, %; measured here: RFP expression control read;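 0 = vehicle wells; hits needed this value within 50% of zero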
Numbers without * were called inactive. No enrichment for hits, and some 2.9% of all compounds hit somewhere here.

Screening NC(=O)c1ccc[n+](CC(=O)NCc2ccc(Cl)cc2)c1 returned PABP polyA inh 0, Env fusion inh 21, CSC inhib 5, MT1-MMP act inh -4, eIF4H FP inh 2, Rce1 inhib inactive, UUG fidelity -2 and MT1-MMP act inh RFP -4.
For Cc1ccc(-c2nn(CC(=O)NCc3ccco3)c(=O)c3ccccc23)cc1 the results were PABP polyA inh 2, CSC inhib 4, MT1-MMP act inh -2, eIF4H FP inh 10, Rce1 inhib inactive, UUG fidelity -14 and MT1-MMP act inh RFP -1.
For COc1cc(OC)cc(C2=NCCN2)c1 the results were PABP polyA inh -12, Env fusion inh 1, CSC inhib -3, MT1-MMP act inh -1, eIF4H FP inh 0, Rce1 inhib inactive and MT1-MMP act inh RFP 0.
CC1(C)C2CCC1(C)C(OC(=O)C[n+]1ccccc1N)C2 (stereo unspecified) was read as PABP polyA inh 13, Env fusion inh 1, CSC inhib 4, MT1-MMP act inh 2, eIF4H FP inh -1, Rce1 inhib inactive, UUG fidelity -7 and MT1-MMP act inh RFP 3.
`COc1ccc(-c2nnc(SCc3ccccn3)n2C)cc1` gave PABP polyA inh -16, Env fusion inh -87, CSC inhib -6, MT1-MMP act inh -5, eIF4H FP inh 9, Rce1 inhib inactive, UUG fidelity -13 and MT1-MMP act inh RFP 0.
`O=C(Nc1cc(Cl)ccc1-n1cncn1)c1cc(S(=O)(=O)N2CCOCC2)ccc1F` gave PABP polyA inh 3, Env fusion inh 23, CSC inhib -17, MT1-MMP act inh 7, eIF4H FP inh 1, Rce1 inhib inactive, UUG fidelity -20 and MT1-MMP act inh RFP -3.
For Cc1ccc2c(COC(=O)C3=COCCO3)cc(=O)oc2c1 the results were PABP polyA inh -2, Env fusion inh -24, MT1-MMP act inh 4, eIF4H FP inh 2, Rce1 inhib inactive, UUG fidelity -1 and MT1-MMP act inh RFP 5.
COc1ccc(CNc2nc3c(c(=O)[nH]c(=O)n3C)n2Cc2ccccc2C)cc1 was read as PABP polyA inh -1, Env fusion inh 2, CSC inhib -13, MT1-MMP act inh 3, eIF4H FP inh -11, Rce1 inhib inactive, UUG fidelity -3 and MT1-MMP act inh RFP 1.
Screening CCc1nc(SCC(=O)NC2CCCC2)c2c(=O)n(C)c(=O)n(C)c2n1 returned PABP polyA inh -12, Env fusion inh 16, CSC inhib -10, MT1-MMP act inh 0, eIF4H FP inh 0, Rce1 inhib inactive, UUG fidelity -11 and MT1-MMP act inh RFP -3.
`CC(Oc1ccc(Cl)cc1Cl)C(=O)NC(=S)N1CCc2ccccc21` (stereo unspecified) gave PABP polyA inh -18, Env fusion inh -30, CSC inhib 53, MT1-MMP act inh 5, eIF4H FP inh -10, Rce1 inhib inactive, UUG fidelity -17 and MT1-MMP act inh RFP 4.
Cc1c(C(c2cccs2)c2c(C)n(C)n(-c3ccccc3)c2=O)c(=O)n(-c2ccccc2)n1C was read as PABP polyA inh -1, Env fusion inh 2, CSC inhib -13, MT1-MMP act inh -6, eIF4H FP inh -7, Rce1 inhib inactive and MT1-MMP act inh RFP -4.
For Cc1ccc2c(cnn2C(=O)CCCC(=O)NCc2ccc(Cl)cc2)c1 the results were PABP polyA inh 3, Env fusion inh -39, CSC inhib 45, MT1-MMP act inh 4, eIF4H FP inh -4, Rce1 inhib inactive, UUG fidelity -16 and MT1-MMP act inh RFP 1.
`Cc1nnc(SCc2cccc([N+](=O)[O-])c2)[nH]c1=O` gave PABP polyA inh -8, Env fusion inh -7, MT1-MMP act inh -2, eIF4H FP inh -3, Rce1 inhib inactive and MT1-MMP act inh RFP 1.
For Cc1ccc(C(=O)N/C(=C\c2cccs2)C(=O)NCCCN2CCOCC2)cc1 the results were PABP polyA inh -9, Env fusion inh -3, CSC inhib -16, MT1-MMP act inh 3, eIF4H FP inh -3, Rce1 inhib inactive, UUG fidelity -8 and MT1-MMP act inh RFP 4.
Screening S=C(NC1CCCCC1)NC1CC2C=CC1C2 (stereo unspecified) returned PABP polyA inh 8, Env fusion inh 5, CSC inhib -3, MT1-MMP act inh -2, eIF4H FP inh 0, Rce1 inhib inactive, UUG fidelity -18 and MT1-MMP act inh RFP -5.
For Cc1cc2c(cc1S(=O)(=O)NCc1ccccc1)OCC(=O)N2 the results were PABP polyA inh -8, Env fusion inh 10, CSC inhib -8, MT1-MMP act inh 6, eIF4H FP inh 3, Rce1 inhib inactive, UUG fidelity -5 and MT1-MMP act inh RFP 4.
For CN(Cc1ccccc1)C(=O)c1cccc(NC(=O)Cc2ccc(NC(=O)C3CCCN(C(=O)C4CCC4)C3)cc2)c1 (stereo unspecified) the results were Env fusion inh -34, MT1-MMP act inh -2, UUG fidelity -6 and MT1-MMP act inh RFP -3.
`COc1ccc(C(=O)Nc2nc(C)cs2)cc1S(=O)(=O)N1CCCC1` gave PABP polyA inh -11, Env fusion inh 11, CSC inhib -10, MT1-MMP act inh 3, eIF4H FP inh -1, Rce1 inhib inactive and MT1-MMP act inh RFP 2.
`CCOC(=O)c1sc(Nc2ccc(F)cc2)nc1C` gave PABP polyA inh 7, Env fusion inh -32, CSC inhib 2, MT1-MMP act inh -1, eIF4H FP inh -8, Rce1 inhib inactive and MT1-MMP act inh RFP -1.
CC(=O)c1ccc(OCCCC(=O)Nc2cc(S(=O)(=O)N3CCCCC3)ccc2C)cc1 was read as Env fusion inh 11, MT1-MMP act inh -6, UUG fidelity -12 and MT1-MMP act inh RFP -10.
Cc1ccc(C)c(NC(=O)CN(C)C(=O)CC2OC(=O)c3ccccc32)c1 (stereo unspecified) was read as Env fusion inh 18, CSC inhib 4, MT1-MMP act inh -1, UUG fidelity -9 and MT1-MMP act inh RFP 5.
CCCNC(=O)CSc1nccn1Cc1ccc(OC)cc1 was read as PABP polyA inh 0, Env fusion inh -10, MT1-MMP act inh -5, eIF4H FP inh -11, Rce1 inhib inactive and MT1-MMP act inh RFP -3.
For CCc1ccc(NC(=O)C(C)OC(=O)CCC(=O)c2cccs2)cc1 (stereo unspecified) the results were PABP polyA inh -4, Env fusion inh 17, CSC inhib -4, MT1-MMP act inh -7, eIF4H FP inh 14, Rce1 inhib inactive, UUG fidelity -18 and MT1-MMP act inh RFP -2.
CC(C)Cn1c(SCC(=O)Nc2cc(Cl)c(Cl)cc2Cl)nc(O)cc1=O was read as Env fusion inh -5, MT1-MMP act inh -7, Rce1 inhib inactive, UUG fidelity -19 and MT1-MMP act inh RFP 0.
`CC(=O)Oc1ccc2ccc3ccc(C(C)=O)cc3c2c1` gave Env fusion inh 2, MT1-MMP act inh -2, UUG fidelity -3 and MT1-MMP act inh RFP -2.
`N#CC(C#N)=C(Nc1ccccc1)c1ccccc1` gave PABP polyA inh -8, Env fusion inh 8, CSC inhib -7, MT1-MMP act inh 0, eIF4H FP inh 12, Rce1 inhib inactive, UUG fidelity -14 and MT1-MMP act inh RFP 1.
For O=C(c1ccco1)N1CCN(Cc2ccccc2Br)CC1 the results were PABP polyA inh 2, Env fusion inh 0, CSC inhib -8, MT1-MMP act inh 3, eIF4H FP inh 2, Rce1 inhib inactive, UUG fidelity -2 and MT1-MMP act inh RFP 8.
O=C(O)c1cc2nc3c(c(C(F)(F)F)n2n1)CCc1ccccc1-3 was read as PABP polyA inh 18, CSC inhib 9, MT1-MMP act inh 0, eIF4H FP inh 2, Rce1 inhib inactive, UUG fidelity -13 and MT1-MMP act inh RFP -3.
Cc1cc(-c2ccccc2)nc(-c2ccccc2)c1C was read as PABP polyA inh 1, Env fusion inh -7, CSC inhib -2, MT1-MMP act inh -3, eIF4H FP inh -2, Rce1 inhib inactive, UUG fidelity -6 and MT1-MMP act inh RFP 0.
COc1ccc(-n2c(C)c(C(C)=O)c(C(C)=O)c2C)cc1 was read as PABP polyA inh 7, Env fusion inh -14, CSC inhib -16, MT1-MMP act inh 0, eIF4H FP inh -9, Rce1 inhib inactive, UUG fidelity -5 and MT1-MMP act inh RFP 1.
For CCCCC(=O)c1c(C)cc(C)[nH]c1=O the results were PABP polyA inh -2, Env fusion inh -34, CSC inhib -24, MT1-MMP act inh 7, eIF4H FP inh -4, Rce1 inhib inactive, UUG fidelity 2 and MT1-MMP act inh RFP 4.
For COC(=O)CNC(=O)c1sc2ncn(CC(=O)Nc3ccc(C)c(Cl)c3)c(=O)c2c1C the results were PABP polyA inh 2, Env fusion inh 5, CSC inhib -28, MT1-MMP act inh -3, eIF4H FP inh -6, Rce1 inhib inactive and MT1-MMP act inh RFP -6.
Screening O=C(N/N=C/c1ccsc1)c1cc(-c2ccncc2)nc2ccccc12 returned PABP polyA inh 1, Env fusion inh -27, CSC inhib 58, MT1-MMP act inh 5, eIF4H FP inh 6, Rce1 inhib inactive and MT1-MMP act inh RFP -8.
For COc1ccc(OC)c(N(CC(=O)Nc2cccnc2)S(C)(=O)=O)c1 the results were PABP polyA inh -7, Env fusion inh -23, CSC inhib 0, MT1-MMP act inh -9, eIF4H FP inh -2, Rce1 inhib inactive, UUG fidelity -9 and MT1-MMP act inh RFP 1.
`O=C(Nc1ccnn1C1CCN(Cc2cccc(OCCO)c2)CC1)C1CC1` gave PABP polyA inh 4, Env fusion inh -4, CSC inhib -12, MT1-MMP act inh 0, eIF4H FP inh -5, UUG fidelity -20 and MT1-MMP act inh RFP 5.
COc1ccc(C2/C=C\CN(S(=O)(=O)c3ccc(-c4ccccc4)cc3)CC(=O)N2Cc2ccc(F)cc2)cc1 (stereo unspecified) was read as PABP polyA inh -4, MT1-MMP act inh 2, eIF4H FP inh -3, Rce1 inhib inactive, UUG fidelity -18 and MT1-MMP act inh RFP -1.
Screening CCC(CO)Oc1cc(NCc2ccc(Cl)cc2Cl)c2ncn(C(C)C)c2c1 (stereo unspecified) returned Env fusion inh -7, CSC inhib 111*, MT1-MMP act inh 1, UUG fidelity -24 and MT1-MMP act inh RFP -5.
CCOc1cc(C(=O)NC(=S)Nc2cccnc2)cc(OCC)c1OCC was read as PABP polyA inh 1, Env fusion inh 5, CSC inhib -8, MT1-MMP act inh -2, eIF4H FP inh 11, Rce1 inhib inactive and MT1-MMP act inh RFP 0.
`Cc1ccc(OCc2nnc(SCC(=O)N3CCOCC3)n2C)cc1` gave PABP polyA inh -2, Env fusion inh -45, CSC inhib -7, MT1-MMP act inh 3, eIF4H FP inh 1, Rce1 inhib inactive, UUG fidelity -8 and MT1-MMP act inh RFP 1.
For Cn1cc[nH]c1=S the results were PABP polyA inh 9, Env fusion inh -11, MT1-MMP act inh 0, eIF4H FP inh -1, UUG fidelity -25 and MT1-MMP act inh RFP 3.
Screening COC(=O)c1ccc(Nc2c([N+](=O)[O-])c(=O)oc3ccccc23)cc1 returned PABP polyA inh -3, Env fusion inh -62, CSC inhib 9, MT1-MMP act inh -2, eIF4H FP inh 2 and MT1-MMP act inh RFP -10.
Screening Cc1ccc2c(c1)=C(c1ccccc1)N(O)CC(=O)N=2 returned PABP polyA inh -1, Env fusion inh 5, CSC inhib -1, MT1-MMP act inh -3, eIF4H FP inh -6, Rce1 inhib inactive, UUG fidelity -10 and MT1-MMP act inh RFP 0.
Cc1oc(-c2ccccc2)cc1C(=O)Nc1cccc(/C=C\C(=O)O)c1 was read as PABP polyA inh 6, Env fusion inh -30, CSC inhib -8, MT1-MMP act inh 4, eIF4H FP inh 10, Rce1 inhib inactive and MT1-MMP act inh RFP -2.
For O=S(=O)(c1ccc(NC(=S)Nc2ccc(OC(F)F)cc2)cc1)N1CCOCC1 the results were PABP polyA inh -21, Env fusion inh -17, CSC inhib 2, eIF4H FP inh -13, Rce1 inhib inactive and UUG fidelity -20.
O=C(CSc1nc2ccccc2o1)c1cc2ccccc2oc1=O was read as PABP polyA inh -2, CSC inhib 11, MT1-MMP act inh -8, eIF4H FP inh 22, UUG fidelity -18 and MT1-MMP act inh RFP 11.
